ClpP mod: qHTS Assay for Activators of ClpP | purified B. subtilis ClpP, FRET peptide cleavage, 20 min | Potency, µM (doses to about 57.5 µM), without a hit: at the top dose activity change, negative = active | hit rate 1.9% among 340,000; active = well fitted falling curve with a large enough effect; inconclusive = small, poorly fitted or top-dose-only effect; inactive = no such curve, though single readings can be large or run the other way; note: the source files actives as falling curves though it sought activators and does not explain the sign; nearly all actives have a fitted effect of over 65% in size; many hits overshoot -100%
Target sequence (P80244 whole entry, looked up): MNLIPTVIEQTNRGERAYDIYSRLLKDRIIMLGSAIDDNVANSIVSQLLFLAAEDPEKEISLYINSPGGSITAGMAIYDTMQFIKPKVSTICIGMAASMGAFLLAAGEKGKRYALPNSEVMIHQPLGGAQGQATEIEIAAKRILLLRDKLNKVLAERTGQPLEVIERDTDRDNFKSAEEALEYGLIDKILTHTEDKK
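FRET quenching reversal measured ClpP activation: 10 microg/mL B. subtilis ClpP at pH 8 with the FRET-FV decapeptide, read at 430 nm after 320 nm excitation. The 20-min minus 0-min signal was scaled between DMSO/no-enzyme wells and ADEP (5.8 microM final).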
* marks the source's active call; other numbers are inactive results; ? = inconclusive. Potency is the fitted concentration of half-maximal effect. Only part of the results is shown, so the mix of outcomes need not match the whole.

SMILES | ClpP mod
O=C(CCn1ccc2cc(S(=O)(=O)N3CCCC3)ccc21)NCc1ccccc1Cl | -4.4%
O=C(Cn1c(=O)n(CCc2ccccc2)c(=O)c2c3c(sc21)CCCC3)Nc1ccc(F)c(F)c1 | -0.2%
CCN(CC)CCNC(=O)c1ccc2c(=O)n3nc(Nc4cccc(Cl)c4C)sc3nc2c1 | -9.6%
Cc1ccccc1NC(=O)Cn1nc(-c2ccccc2)nc(Cc2ccccc2)c1=O | 1.5%
COc1ccc(N2C(=O)CCSC23C(=O)N(Cc2ccc(F)cc2)c2ccccc23)cc1 (stereo unspecified) | -1.6%
Cc1ccsc1CN(C(=O)COc1cccc(C)c1C)C1CCS(=O)(=O)C1 (stereo unspecified) | 1.3%
COc1cc2ccccc2cc1C(=O)Nc1ccc2oc(-c3cccc(Cl)c3Cl)nc2c1 | 2.2%
COc1ccc(OC)c(CNC(=O)c2c(C)oc3ncn(CC(C)C)c(=O)c23)c1 | 0.7%
Cn1c(C(=O)N2CCC(C(=O)NCCc3ccccc3)CC2)cc2sccc21 | 0.3%
COc1ccc(Br)cc1C(=O)Nc1ccc2oc(-c3cccnc3)nc2c1 | -8.5%
Cc1c(CC(=O)NCCc2ccc(Cl)cc2)c(=O)oc2c(C)c3occ(C(C)(C)C)c3cc12 | ?
Cc1oc(-c2ccc(C(=O)Nc3ccc(F)cc3F)cc2)nc1COc1ccccc1 | -2.3%
Cc1ccc(-n2ncc3c(NCc4ccccc4)ncnc32)cc1Cl | -15%
CCc1ccc(Oc2c(C(F)(F)F)oc3c(CN4CCN(CC)CC4)c(O)ccc3c2=O)cc1 | -1.2%
O=C(COc1ccccc1)OCc1cc(=O)n2nc(-c3cccs3)sc2n1 | -26%
O=C(Nc1ccccc1C(F)(F)F)C1CCN(S(=O)(=O)c2ccccc2)CC1 | -1.4%
CCn1c(C)c(C)c2cc(C(=O)NCc3ccc(F)cc3)ccc21 | -5.3%
Cc1ccc(C)c(NS(=O)(=O)c2ccc3c4c(cccc24)C(=O)N3)c1 | -6.8%
CC(=O)N1c2ccc(S(=O)(=O)Nc3ccc(C)c(Cl)c3)cc2CC1C (stereo unspecified) | -2.7%
Cc1c(CNC2CCCCC2)c(C(=O)O)c(C)n1Cc1ccc(Cl)cc1 | -2.6%
COc1ccc(NC(=O)CN(c2ccc(C)cc2)S(=O)(=O)c2cccc3nonc23)cc1OC | -0.1%
COc1ccc(Br)c(C(=O)Nc2cc3c(cc2N2CCOCC2)n(C)c(=O)n3C)c1 | -3.5%
CCOc1ccc(-n2ccnc2SCC(=O)Nc2ccc(OC)cc2OC)cc1 | -0.6%
Cc1cc(=O)[nH]c2nnc(SCc3c(F)cccc3Cl)n12 | -5.9%
Cc1ccc(-n2c(/C=C/c3c(C)n(C)c4ccccc34)nc3ccccc3c2=O)cc1 | -0.2%

Next part.
SMILES | ClpP mod
CCc1nn(CC(=O)NC(C)c2ccccc2)c(=O)c2cc3sccc3n12 (stereo unspecified) | -1.4%
Cc1ccc(S(=O)(=O)C(CNS(=O)(=O)c2cc(F)ccc2F)c2cccs2)cc1 (stereo unspecified) | -3.3%
Cc1nnc(NCc2ccc(F)cc2)c2c1nnn2Cc1ccccc1Cl | -0.1%
CCCNC(=O)c1ccc(-n2c(-c3ccccc3)cc3c2CCC(C)C3)cc1 (stereo unspecified) | ?
CCOC(=O)c1cnc2c(ccc3ccccc32)c1Nc1ccccc1OCC | -2.3%
Cc1ccc(-c2nc3sc(CCNC(=O)c4ccc(C)c(C)c4)c(C)n3n2)cc1 | -4.2%
OC(CN1CCCCC1)c1ccccc1 (stereo unspecified) | -0.9%
COc1ccccc1NC(=O)C1=C(C)Nc2ncnn2C1c1ccccc1C(=O)O (stereo unspecified) | 0.8%
Cc1ccc(S(=O)(=O)c2nc(-c3cccs3)oc2SC(C)c2ccccc2)cc1 (stereo unspecified) | -9.8%
Cc1oc2ccc(O)c(CN3CCCCCC3)c2c1C(=O)Nc1cccc(C(F)(F)F)c1 | -2.8%
COCC(=O)Oc1c(Sc2ccc(C)cc2)c(C)nn1C(C)(C)C | -1.7%
COc1ccc(NC(=O)CSc2nc(-c3ccco3)cc(C(F)(F)F)n2)cc1 | -13%
COc1ccc(NC(=O)C(Cc2ccccc2)NS(=O)(=O)c2ccc3c(c2)CCC(=O)N3)c(OC)c1 (stereo unspecified) | -6.8%
Cn1c(SCC(=O)N2CCCc3ccccc32)ncc(C(=O)Nc2ccccc2)c1=O | -7.5%
COc1ccc(-c2nsc(NC(=O)c3ccccc3Br)n2)cc1 | 0.5%
Cc1nnc(N2CCN(c3cccc(Cl)c3)CC2)c2c1nnn2Cc1ccc(F)cc1 | ?
Cc1ccc(OCC(=O)OC2=C(C(=O)c3ccccc3)N(C)S(=O)(=O)c3ccccc32)cc1 | -16%
Cc1ccc(C)c(Nc2cc(C(=O)NC3CCCC3)c3ccccc3n2)c1 | -0.1%
COc1ccc(C(=O)CN2C(=O)N(c3cc(C)cc(C)c3)S(=O)(=O)c3ccccc32)cc1 | -1.8%
COc1ccccc1CNC(=O)Cn1c(=O)oc2ccccc21 | -0.7%
CCc1cccc(NC(=O)COC(=O)c2ccccc2OCc2ccccc2Br)c1 | -9.7%
Cc1csc2nc(-c3cccc(NC(=O)c4cccc(F)c4)c3)cn12 | -4.4%
COc1cccc(NC(c2nnc(-c3ccccc3)o2)c2ccc(F)cc2Cl)c1 (stereo unspecified) | -3.8%
CCc1ccccc1NC(=O)Cn1nc(C)c2nn(-c3ccc(Cl)cc3)c(C)c2c1=O | -6.0%
CCOCCn1ccc2c(OCC(=O)Nc3ccc(C(N)=O)cc3)cccc2c1=O | 4.6%

Ordered by molar mass (falling): some entries from above
SMILES | ClpP mod
Cc1ccc(OCC(=O)OC2=C(C(=O)c3ccccc3)N(C)S(=O)(=O)c3ccccc32)cc1 | -16%
Cc1ccc(S(=O)(=O)C(CNS(=O)(=O)c2cc(F)ccc2F)c2cccs2)cc1 (stereo unspecified) | -3.3%
COc1ccc(C(=O)CN2C(=O)N(c3cc(C)cc(C)c3)S(=O)(=O)c3ccccc32)cc1 | -1.8%

Molecules shown so far containing bromine (four):
SMILES | ClpP mod
COc1ccc(Br)cc1C(=O)Nc1ccc2oc(-c3cccnc3)nc2c1 | -8.5%
COc1ccc(Br)c(C(=O)Nc2cc3c(cc2N2CCOCC2)n(C)c(=O)n3C)c1 | -3.5%
COc1ccc(-c2nsc(NC(=O)c3ccccc3Br)n2)cc1 | 0.5%
CCc1cccc(NC(=O)COC(=O)c2ccccc2OCc2ccccc2Br)c1 | -9.7%

Two compounds picked at random from those above:
SMILES | ClpP mod
CCCNC(=O)c1ccc(-n2c(-c3ccccc3)cc3c2CCC(C)C3)cc1 (stereo unspecified) | ?
COc1ccc(C(=O)CN2C(=O)N(c3cc(C)cc(C)c3)S(=O)(=O)c3ccccc32)cc1 | -1.8%

Continuation.
SMILES | ClpP mod
COc1ccc(NC(=O)c2cc(C3CC3)nc3c2c(C)nn3-c2ccccc2)c(OC)c1 | 1.4%
Cc1ccc(NC(=O)CN2C(=O)CCc3ccccc32)cc1C | 1.9%
Cc1ccccc1NC(=O)Cn1nnc(C(=O)NCCc2ccccc2)c1N | -0.3%
Cc1cc(C)c(NC(=O)C2CCN(C(=O)N3CC(C)Oc4ccc(Cl)cc43)CC2)c(C)c1 (stereo unspecified) | 0.1%
Cc1ccc(CN(Cc2ccco2)C(=O)c2ccc(Cl)cc2)o1 | -1.6%
COc1ccc(-c2nc3ccc(NS(=O)(=O)c4ccc(C)cc4)cc3o2)cc1 | 4.0%
O=C(Nc1ccc(-c2nc3ccccc3o2)c(O)c1)c1ccccc1 | -4.7%
COc1ccccc1CNC(=O)CSC1=Nc2ccccc2N=C(c2ccc(F)cc2)C1 | -1.1%
Cc1ccccc1C(=O)Nc1nc2nc(C)c(C)c(=O)n2[nH]1 | -4.8%
CCOC(=O)c1cccc(NC(=O)N2Cc3ccccc3Oc3ncccc32)c1 | -2.1%
COCCc1nn2c(=O)cc(COC(=O)COc3ccccc3C)nc2s1 | -0.8%
CC1=C(c2ccc(Cl)cc2)S(=O)(=O)N=C1N1CCN(c2cccc(C)c2)C(C)C1 (stereo unspecified) | 0.8%
COCCCNC(=O)CCn1c(=O)c2ccccc2n(CC(=O)Nc2cc(Cl)ccc2OC)c1=O | -1.6%
COc1ccc(-n2nc3c(N4CCCC(C(=O)NCc5cccc(F)c5)C4)nnc(C)c3c2C)cc1 (stereo unspecified) | -4.7%
CC(=O)c1ccc(NC(=O)CCc2c(C)nc3c(c(C)nn3-c3ccc(C)cc3)c2C)cc1 | 14µM*
Cc1ccc(CNC(=O)NCc2noc3ccc(C)cc23)cc1 | -3.5%
CC1=C(C(=O)Nc2cccc(Cl)c2)C2(CCCCCC2)OC1=O | -1.6%
COc1cccc(C(=O)Nc2cccc(C(=O)OCc3cc(=O)n4nc(C5CC5)sc4n3)c2)c1 | -1.1%
Cc1c(NS(C)(=O)=O)cccc1-c1nc2ccccc2s1 | -5.6%
Cc1ccc(NC(=O)CN2C(=O)COc3ccc(S(=O)(=O)N4CCCCCC4)cc32)cc1C | -1.5%
O=C(NCC(c1ccccc1)c1ccccc1)c1nn(-c2ccccc2F)nc1CO | 53%
COc1ccc(CNC(=O)CCCN2C(=O)CCn3nc(-c4cn(C)c5ccccc45)cc32)cc1 | -6.6%
CCOC(=O)c1cnc2ccc(Cl)cc2c1Nc1ccc(OCC)cc1 | -3.7%
O=C1c2ccccc2NC(c2ccccc2O)N1Cc1ccco1 (stereo unspecified) | 4.8%
COc1ccccc1CNC(=O)CCCN1C(=O)CCn2nc(-c3cn(C)c4ccccc34)cc21 | 2.0%

Following part:
SMILES | ClpP mod
Cc1ccc(NC(=O)CCS(=O)(=O)c2ccc(Br)cc2)c(C)c1 | -0.9%
CCc1ccc(O)c(C(=O)c2cnc3cc(-c4ccc(C)cc4)nn3c2)c1 | -1.4%
O=C(COc1ccccc1)N(Cc1cccnc1)c1nc2ccc(F)cc2s1 | 1.2%
COCCCNC(=O)CSc1nc2ccccc2c(=O)n1Cc1ccco1 | 1.2%
CCOc1ccc(OCC)c(Nc2nc3ccccc3n3nnnc23)c1 | -24%
CCn1ccc2c(OCC(=O)Nc3ccccc3C(F)(F)F)cccc2c1=O | ?
CNc1ccc(/C=C/c2ccccc2)cc1 | 4.4%
CCc1ccccc1NC(=O)Nc1nnc(N(CC)c2ccccc2)s1 | -1.1%
Cc1cccc(N2C(=O)CSC23C(=O)N(CC(=O)Nc2cccc(Cl)c2)c2ccccc23)c1 (stereo unspecified) | -1.1%
CN(C(=O)C1=CC(c2ccc3c(c2)OCO3)=NS(=O)(=O)N1C)c1ccccc1 | 1.0%
Cc1cc(C)n(CCc2nc3c4ccccc4nc(N4CCN(c5ccccc5)CC4)n3n2)n1 | -5.2%
COc1ccc(Cl)cc1NS(=O)(=O)c1cc(-c2cc(C)no2)ccc1C | 0.1%
CC(CNC(=O)CCCn1c(=O)c2cccn2c2ccccc21)c1ccccc1 (stereo unspecified) | -14%
CCOc1ccc(NC(=O)Cn2c(=O)n(-c3cccc(Cl)c3)c(=O)c3c2c2cc(C)ccc2n3C)cc1 | -27%
CCc1ccc(S(=O)(=O)c2nnn3c2nc(NCCNC(C)=O)c2cc(Cl)ccc23)cc1 | 3.6%
CCOC(=O)c1ccc(NC(=O)c2ccc3c(c2)NC(=O)c2ccccc2S3)cc1 | 0.5%
CC(C)NC(=O)Cn1ncn2c(cc3cc(F)ccc32)c1=O | -12%
CCOC(=O)c1noc2nc(C)n(CC(=O)NC(C)CC)c(=O)c12 (stereo unspecified) | -3.5%
CCc1ccc(NC(=O)c2cccc(N3CCCS3(=O)=O)c2)cc1 | -1.1%
CCOc1ccc(CNC(=O)Cn2nc(C)n3cccc3c2=O)cc1 | 1.5%
Cc1cc(C(F)(F)F)nn1-c1nc(-c2ccccc2)cc(C(F)(F)F)n1 | -2.5%
CCC(=O)Oc1ccc(-c2nc3ccccc3c(=O)o2)cc1 | 0.2%
